Source: PubChem BioAssay
Rango dissoc inh – qHTS Assay for Inhibitors of RanGTP induced Rango (Ran-regulated importin-beta cargo) - Importin beta complex dissociation | 340,000 compounds, 0.071% hits | Potency, µM (series often up to 46.1 µM), inactives show at the top dose activity change, negative = inhibition | Biochemical FRET Rango-importin beta, RanGTP-induced dissociation | Snurportin-1 (Homo sapiens) + GTP-binding nuclear protein Ran (Homo sapiens) + Importin …; active means falling FRET ratio curve, often poorly fitted, with flat reads before Ran was added; inconclusive means other falling curves, or compound fluorescence or quenching; inactive means flat or rising ratio curve;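 note: potency is the fitted concentration of half-maximal effect; % of control where 0% means no effect; nearly all actives have a fitted effect of over 45% in size; -100% = wells without RanGTP and RCC1; the record marks most hits as doubtful in a second field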
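Two FRET readings bracket the reaction: one 5 min after compound meets Rango–importin beta, another 45 min after RanGTP-RCC1 (0.6 uM Ran, 0.2 uM RCC1, 2 mM GTP) is added. Only the second defines inhibition.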
miR-21 FLuc – qHTS Assay for Modulators of miRNAs and/orActivators of miR-21; HeLa miR-21 FLuc reporter, luciferase, 48 h; Potency, µM (titrated, usually from 38.3 µM), for inactives: top-dose reporter change, positive = more light; 340,000 tested, under 10 active; active = well fitted rising curve with a large enough effect; inconclusive = small, poorly fitted or top-dose-only effect; inactive = no such curve, though single readings can be large or run the other way;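 note: % of control where 0% means no effect; miR-21 action dims this reporter so a rising signal means less miR-21 action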
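Compounds were titrated across several concentrations (up to approximately 40 uM) and incubated 48 hours with HeLa miR-21-FLuc reporter cells (miR-21 target sequence downstream of FLuc, endogenous miR-21). Readout was firefly luciferase luminescence after lytic detection reagent.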
Rango complex inh – qHTS Assay for Inhibitors of Rango (Ran-regulated importin-beta cargo) - Importin beta complex formation; Importin subunit beta-1 (Homo sapiens), Q14974; Rango CFP/YFP FRET sensor + importin beta, 45 min; Potency, µM (titrated, usually from 92.2 µM), inactives show at the highest dose inhibition of complex formation; 340,000 compounds, 0.031% hits; AID 540263, 2011; active = rising FRET ratio curve, often small or poorly fitted; inconclusive = mostly compound fluorescence or quenching in the first reads; inactive = flat curves in all reads;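 note: potency is the fitted concentration of half-maximal effect; 0% = DMSO wells and 100% = buffer wells lacking importin beta; nearly all actives have a fitted effect of over 15% in size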
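FRET biosensor (snurportin 1 IBB flanked by EYFP and cerulean), 50 nM, with compound 5 min, then 0.125 microM importin beta in PBS, 1 mM DTT, 0.02% Tween-20, 0.1% BSA. CFP/YFP ratio read after 45 min at room temperature; pre-read flags interference.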
GLA inh pH 4.5 – qHTS Assay for Inhibitors of Human alpha-Galactosidase at pH 4.5. Alpha-galactosidase A (Homo sapiens), P06280. purified enzyme, 4-MU-alpha-Gal fluorescence, pH 4.5. activity change, negative = inhibition, % at 105 µM. 230,000 tested, under 10 active. AID 1467, 2008; inconclusive = small, poorly fitted or top-dose-only inhibition, or a rising curve; inactive = flat fitted curve, though single readings scatter; no compound was filed as active;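 note: 0% = full activity with enzyme and -100% = basal without enzyme; dose as in the result columns while the protocol names 77 µM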
Target sequence (P06280 whole entry, looked up): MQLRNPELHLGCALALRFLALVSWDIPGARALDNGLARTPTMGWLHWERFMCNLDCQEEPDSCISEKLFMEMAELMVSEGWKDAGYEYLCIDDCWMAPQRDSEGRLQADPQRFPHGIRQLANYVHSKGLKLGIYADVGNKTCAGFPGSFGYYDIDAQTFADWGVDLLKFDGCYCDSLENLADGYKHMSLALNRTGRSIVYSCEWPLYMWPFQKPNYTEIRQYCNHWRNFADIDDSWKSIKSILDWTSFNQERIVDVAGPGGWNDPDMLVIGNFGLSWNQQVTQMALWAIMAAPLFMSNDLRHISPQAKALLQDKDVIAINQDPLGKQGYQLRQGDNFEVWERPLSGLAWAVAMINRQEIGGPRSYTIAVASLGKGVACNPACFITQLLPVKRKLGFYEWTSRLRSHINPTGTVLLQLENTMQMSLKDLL
Numbers without * were called inactive; u = inconclusive; x = no result given; & = joins results of further samples; [ ] = another dose, or the depositor's remark. The list is partial, so the mix of outcomes need not match the whole.

| Rango dissoc inh | miR-21 FLuc | Rango complex inh | GLA inh pH 4.5 | Structure |
| --- | --- | --- | --- | --- |
| x | -1% | x | 1 | CC1(C)CC(=O)C2=C(C1)NC(=O)CC2C(=O)NCc1ccc(F)cc1 (stereo not given) |
| 17% | 1% | -0.3% | x | Cc1ccc(CNC(=O)CCC(=O)N2CC(C)Oc3ccc(Cl)cc32)cc1 (stereo not given) |
| 3% | 4% | 0.6% | x | O=C(CN(Cc1ccccc1Cl)C(=O)c1csnn1)NC1CCCC1 |
| -3% | x | -0.5% | x | O=C(Oc1cncc(Cl)c1)c1sccc1Cl |
| 0% | -22% | 0.2% | -4 | CCC1Sc2ccccc2N(CC(=O)NCc2ccccc2OC)C1=O (stereo not given) |
| 0% | 0% | -0.7% | -10 | C=CCn1c(-c2ccccc2)cc(SC)c(C#N)c1=O |
| -12% | -5% | 0.2% | x | O=C1CSC(=S)N1/N=C/c1c(F)cccc1F |
| -2% | -1% | 3.2% | 5 | Cc1cc(NC(=O)CCC(=O)N(Cc2ccco2)C(C(=O)NCC2CCCO2)c2ccncc2)no1 (stereo not given) |
| 25% | 0% | 2.9% | x | O=C(CN(C(=O)CNS(=O)(=O)c1ccc(F)cc1)c1cccc(F)c1)NCC1CCCO1 (stereo not given) |
| 27% | 1% | -0.6% | -4 | COC(=O)Cc1csc(NC(=O)CSc2nnc3ccccn23)n1 |
| -2% | -51% | 3.0% | -6 | Cc1ccc(C(=O)N/C(=C\c2ccccc2)C(=O)OCc2ccccc2)cc1 |
| 20% | x | 3.4% | x | CCOC(=O)c1coc(C(=O)OCC)c1C(=O)OCC |
| -15% | -1% | -0.1% | x | O=C(NCC1CCCN(C2Cc3ccccc3C2)C1)c1cccs1 (stereo not given) |
| u | -9% | u | 5 | Cc1ccc(N2C(=O)[C@@H]3[C@H](C2=O)C2c4ccccc4C=CN2[C@@H]3C(=O)c2ccco2)c(C)c1 (stereo not given in full) |
| 5% | u | -1.1% | x | CC12CCCC[C@@H]1CCC1C2CCC2(C)C1CC[C@@]2(O)CNCCO (stereo not given in full) |
| u | 0% | u | 24 | C=CCn1c(=N)c(C(=O)NCCCOC)cc2c(=O)n3cccc(C)c3nc21 |
| 2% | 2% | 2.6% | -7 | CCOC(=O)N=Nc1c(O)n(CC(=O)OC)c2ccccc12 |
| 0% | -9% | 1.4% | 2 | COC(=O)c1ccc2c(c1)N(C)CCS2 |
| -18% | 8% | -3.1% | 8 | O=C(O)CCCn1cc(NC(=O)c2ccc(F)cc2)cn1 |
| -24% | 28% | 0.5% | -2 | CCOc1ccc(-c2cc(CCCC(=O)NCc3ccc(C)cc3)no2)cc1 |
| -6% | 7% | -1.4% | x | C=CCN(CC=C)C(=O)C1CCN(S(=O)(=O)c2ccc(N3CCCC3=O)cc2)CC1 |
| -10% | -6% | 0.1% | -14 | COc1ccccc1C(=O)C1CCCN(C(=O)c2cccc(-n3cccn3)c2)C1 (stereo not given) |
| x | -30% | x | -4 | COc1ccccc1/C=N/NC(=Nc1ccc(C)cc1)c1nc2ccccc2s1 |
| -1%&0% | 1% | -0.6%&-0.9% | 10 | CC1=CC(C)(C)NC(=S)N1c1cccc(C)c1 |
| -6% | 3% | -0.5% | -6 | COc1ccc(C(=O)NCC(=O)OCC(=O)N2CCc3ccccc32)cc1 |
| 3% | 0% | -1.9% | -4 | O=C(NC1CCCCC1)C(c1ccc2ncccc2c1)N(Cc1ccc(F)cc1)C(=O)c1ccc2c(c1)OCCO2 (stereo not given) |
| -1% | -5% | 2.3% | -1 | O=C(O)c1ccccc1S(=O)(=O)NCC(O)COc1ccc(Br)cc1 (stereo not given) |
| 21% | 1% | 1.1% | 14 | O=C(CN1CCCN(Cc2ccc(F)cc2Cl)C1=O)NC1CCCCCC1 |
| -1% | 0% | -1.8% | 11 | N#Cc1ccccc1NC(=O)Nc1ccccc1 |
| -6% | -14% | -0.7% | -2 | O=C(NCc1ccco1)c1ccc(C(F)(F)F)cc1 |
| -1% | -3% | -2.4% | x | COc1ccc([C@@H]2[C@@H]3C(=O)N(C(C)(C)C)C(=O)[C@@H]3[C@]3(C)C(=O)N(c4ccc(C)cc4)C(=O)N23)cc1 |
| 16% | -1% | 8.1% | 9 | Cc1cc(F)c(F)c(C(=O)N2C(C)CCCC2C)c1Cl (stereo not given) |
| 6% | x | 2.4% | x | O=S(=O)(Nc1c(O)ccc2ccccc12)c1ccc(F)cc1 |
| 0% | x | 1.2% | x | N#Cc1ccc(NC(=O)C2=COCCO2)cc1 |
| -11% | -5% | -4.0% | x | CCOC(=O)c1cc(-c2ccc(F)cc2)nc2c1c(=O)[nH]c(=O)n2Cc1ccccc1 |
| 7% | 20%&17% | -0.1% | x | Cc1ccc(NS(=O)(=O)c2ccc3c(c2)NC(=O)CCS3)cc1C |
| 4% | -1% | 4.6% | x | CN(C)CCCNc1ncnc2c1cnn2Cc1ccccc1Cl |
| -7% | -21% | -3.2% | 7 | CCN(CC)Cc1cc(CCNC(=O)c2ccc(Cl)cc2)ccc1O |
| -5% | 3% | 1.1% | -6 | Cc1cc(N/N=C/c2cccc(F)c2)nc(NCc2ccccc2)n1 |
| -6% | -15% | u | 5 | COc1ccc(OC(=O)CN2C(=O)C3C4CCC(C4)C3C2=O)cc1 (stereo not given) |
| -11% | 9% | 0.2% | -10 | Fc1ccc(N2CCN(Cc3cn[nH]c3-c3ccccc3)CC2)cc1 |
| 3% | -2% | 0.4% | -1 | CC(=O)N(c1ccc(C)cc1)c1nc(C)cc(C)c1C#N |
| -7% | -5% | -1.3% | -1 | CCOC(=O)c1cc2c(ccn2C)n1CC(=O)N1CCN(c2ccc(F)cc2)CC1 |
| -10% | 9% | 0.6% | 0 | S=C(NCc1ccco1)N1CCN(Cc2ccc(Cl)cc2Cl)CC1 |
| 0% | x | 0.8% | x | COc1ccc(-c2noc(CCC(=O)N3CCN(c4ccccc4F)CC3)n2)cc1 |
| 9% | -3% | -0.3% | 2 | CC(=O)c1cccc(NC(=O)N2CCCC2C(=O)Nc2ccccc2C)c1 (stereo not given) |
| -3% | 0% | 0.2% | 14 | Cc1ccc(S(=O)(=O)n2c(=O)oc3ccccc32)cc1 |
| 10% | -2% | 0.1% | x | CCCC1(c2ccccc2)NC(=O)N(CC(=O)NCc2ccc(C)cc2)C1=O (stereo not given) |
| -17% | -27% | 3.7% | x | CC(=O)OCC(=O)[C@@]1(O)[C@H](C)C[C@H]2[C@@H]3CCC4=CC(=O)C=C[C@]4(C)[C@@]3(F)[C@@H](O)C[C@@]21C |
| -7% | 4% | -1.9% | 3 | CC(C)c1ccc(C2NC(=O)CCC2[N+](=O)[O-])cc1 (stereo not given) |
| -7% | -20% | -0.2% | 8 | COC(=O)c1ccc(SCC(=O)NC2CCCCC2)c([N+](=O)[O-])c1 |
| 9% | 5% | -0.2% | 2 | Cc1onc(-c2c(F)cccc2Cl)c1C(=O)OCC(=O)NC(c1ccccc1)c1ccccc1 |
| -4% | -15% | -4.7% | 2 | CC(=O)c1cc2c(cc1NC(=O)CSc1nc3ccccc3o1)OCO2 |
| -2% | 1% | 2.5% | 6 | Cn1c(NC(=O)COc2ccccc2)cc(=O)n(C)c1=O |
| -9% | 19% | 0.3% | -16 | C=CCN1C(=O)C(O)(CC(=O)c2ccc(OC)cc2OC)c2cc(Br)ccc21 (stereo not given) |
| 26% | -5% | u | 0 | O=C1N(c2ccccc2)C2CS(=O)(=O)CC2N1c1ccc(Br)cc1 (stereo not given) |
| -8% | x | 0.0% | x | Cc1nn(CC(=O)NC(=O)c2ccccc2)c(C)c1[N+](=O)[O-] |
| -10% | 3% | -5.4% | x | CN(CC(=O)NCCCc1ccccc1)S(=O)(=O)c1ccc(Br)cc1 |
| -6% | -7% | 1.0% | -28 | CCOC(=O)C(NC(=O)c1ccccc1Cl)(Nc1ccc(C(F)(F)F)cc1)C(F)(F)F (stereo not given) |
| 14% | x | 0.2% | x | Cc1ccc(S(=O)(=O)Nc2ccccc2)cc1[N+](=O)[O-] |

Entries listed so far that contain a furan ring, fused or not, in the order listed:
| Rango dissoc inh | miR-21 FLuc | Rango complex inh | GLA inh pH 4.5 | Structure |
| --- | --- | --- | --- | --- |
| -2% | -1% | 3.2% | 5 | Cc1cc(NC(=O)CCC(=O)N(Cc2ccco2)C(C(=O)NCC2CCCO2)c2ccncc2)no1 (stereo not given) |
| 20% | x | 3.4% | x | CCOC(=O)c1coc(C(=O)OCC)c1C(=O)OCC |
| u | -9% | u | 5 | Cc1ccc(N2C(=O)[C@@H]3[C@H](C2=O)C2c4ccccc4C=CN2[C@@H]3C(=O)c2ccco2)c(C)c1 (stereo not given in full) |
| -6% | -14% | -0.7% | -2 | O=C(NCc1ccco1)c1ccc(C(F)(F)F)cc1 |
| -10% | 9% | 0.6% | 0 | S=C(NCc1ccco1)N1CCN(Cc2ccc(Cl)cc2Cl)CC1 |

(further entries)
| Rango dissoc inh | miR-21 FLuc | Rango complex inh | GLA inh pH 4.5 | Structure |
| --- | --- | --- | --- | --- |
| -2% | -32% | 2.9% | 1 | C=CCNc1nc2c3ccccc3n(C(C)=O)c2s1 |
| 1% | -6% | 2.2% | 2 | Cc1ccccc1NC(=O)c1sc(Cl)nc1-c1ccccc1 |
| 2% | 3% | -3.6% | -3 | C=C(C)C(=O)Nc1cccc(C2=NOC3(C2)C[C@H](C(N)=O)N(C(=O)c2ccccc2)C3)c1 (stereo not given in full) |
| -4% | -18% | u | -6 | C/C(=N\NC(=O)c1cc2ccccc2cc1O)c1cc2ccccc2o1 |
| -8% | -6% | -1.9% | -2 | O=C(NC1CCCCCC1)C1c2ccccc2C(=O)N1Cc1cccnc1 (stereo not given) |
| -2% | x | 0.0% | x | C=CC[C@@H](CC(=O)N[C@H](CO)Cc1ccccc1)C(=O)N[C@@H](C)COC(=O)[C@@H](CC=C)Cc1ccc(F)cc1 |
| -6% | -6% | -0.9% | 5 | COc1ccc(C(=O)Nc2ccccc2C(=O)NC(C(=O)NCc2ccco2)C(C)C)cc1 (stereo not given) |
| -10% | -16% | -1.9% | 5 | COc1ccc(CNC(=O)c2cccnc2Sc2ccc(C)c(C)c2)cc1 |
| -6% | -5% | 1.0% | -4 | CCOc1ccc(-n2cnc3c(=O)[nH]c(N)nc32)cc1 |
| 1% | -1% | -0.3% | 3 | Cc1ccc(C2SCCN2C(=O)c2ccc([N+](=O)[O-])cc2)cc1 (stereo not given) |
| 1% | -6% | -0.3% | x | Cc1ccc(S(=O)(=O)c2c(C)cc(C)[nH]c2=O)c(C)c1 |
| 2% | -12% | -2.8% | 1 | CC(=O)c1cccc(NC(=S)NCCC2=CCCCC2)c1 |
| -11% | -1% | -0.1% | 6 | CCOC(=O)C1=NNC2(c3ccc(Cl)cc3)C(=O)N(c3ccc(C)cc3)C(=O)C12 (stereo not given) |
| 3% | 6% | -2.2% | x | COc1ccccc1N1CCN(C2CCCN(S(=O)(=O)c3ccccc3)C2)CC1 (stereo not given) |
| u | -1% | u | 9 | Cc1cccc(S(=O)(=O)C(C#N)c2nc3ccccc3nc2N2CCCC2)c1 (stereo not given) |
| 9% | -3% | 0.6% | 3[21.1 µM] | COCCn1c(=NC(=O)c2ccc3c(c2)OCCO3)sc2cc(S(N)(=O)=O)ccc21 |
| 2% | 0% | 2.5% | -2 | O=C(O)C1CC(=O)N(Cc2cccnc2)C1 (stereo not given) |
| -10% | -6% | -0.5% | x | Cc1ccc(N2C(=O)C3CCCN3C2=S)cc1C (stereo not given) |
| x | -17% | x | 0 | COC(=O)c1[nH]c2ccccc2c1NC(=O)CCN1CCN(C2CCCCC2)CC1 |
| -3% | -2% | -1.2% | -1 | COc1cc(CNCCN2CCOCC2)ccc1OCC(=O)NC(C)(C)C |
| -9% | x | 3.7% | x | C=CC(C)(C)O[C@@H]1O[C@H](CO)[C@@H](O)[C@H](O)[C@H]1O |
| 30% | x | u | x | Cc1ccc(C(=O)NCC(=O)OCCCn2c(=O)[nH]c3ccccc32)cc1 |
